# From PubChem
# TRPML1 blocker: qHTS for Inhibitors of the Human Mucolipin Transient Receptor Potential 1 (TRPML1); activity change, negative = inhibition, % (no concentration beside the values); TRPML1-inducible cells, Ca2+ dye fluorescence, FDSS; stronger effect = lower value; inhibition of EC80 agonist-evoked calcium signal; AID 624415, 2012; Mucolipin-1 (Homo sapiens), Q9GZU1; actives 0.02% (n = 390,000); in the data active means activity change below about -50%; inconclusive means about -30% to -50%; inactive means above about -30%;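 also: stimulus is agonist 54-4 at its EC80 concentration; % is scaled to controls: 0 for no effect and ±100 for the full control effect; compound concentration not given in the record; the text of the record puts the active cut at -80%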
#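 Calcium fluorescence in TRPML1-DL cells induced overnight with Tet: a 110 s read after compound pin addition, then a 110 s antagonist read after challenge with 54-4 at 4 uM final (EC80).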
# TRPML1 ag: qHTS for Agonists of the Human Mucolipin Transient Receptor Potential 1 (TRPML1) | activation, % (test concentration not listed) | actives 0.12% (n = 410,000) | AID 624414, 2012 | TRPML1-expressing cells, Ca2+ dye fluorescence, FDSS; host cell line not named in the record; reference of the full effect not given here | Mucolipin-1 (Homo sapiens), Q9GZU1; in the data active = activation above about 50%; inconclusive = about 30% to 50%; inactive = below about 30%; also: 0% is about no effect; the text of the record puts the active cut at 80%
#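 TRPML1-DL cells, Tet-induced overnight (~16 h, 37 degrees C), loaded 45-90 min at room temperature with Ca8 no-wash calcium dye plus quencher. FDSS fluorescence: 10 s baseline, compound pin-transfer, 110 s agonist read, then EC80 54-4 (4uM final) and 110 s antagonist read.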
# CtBP-E1A inh: qHTS Assay for Inhibitors of the CtBP/E1A Interaction; actives 0.49% (n = 340,000); CtBP / adenovirus E1A interaction (AlphaScreen); activity change, % (concentration not given with the values); AlphaScreen GST-E1A/His-CtBP binding, 1536-well; stronger effect = lower value; control for the full effect not named in the record; in the data active means activity change below about -65%; inconclusive means about -30% to -65%; inactive means above about -30%; also: % is scaled to controls: 0 for no effect and ±100 for the full control effect
#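 Homogeneous bead-based format: GST-tagged E1A captured on glutathione donor beads, His-tagged CtBP on nickel acceptor beads; compounds precede bead addition by 2 h at 37 °C.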
# D2 agonist: Beta-Arrestin HTS for Positive Allosteric Modulators of the Human D2 Dopamine Receptor: Agonists | DiscoveRx PathHunter D2 beta-arrestin, luminescence, 90 min; 100% = 57 uM dopamine signal | AID 624465, 2012 | activation, % (no concentration beside the values) | actives 0.084% (n = 360,000); in the data active = activation above about 40%; inconclusive = about 15% to 40%; inactive = below about 15%; also: compound concentration not given in the record; the text of the record calls up to 30% inactive
#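 DiscoveRx PathHunter D2 beta-arrestin cells (2,100/well) attached overnight, then compound-stimulated 90 min at 37 C in HBSS/10 mM HEPES/0.1% Tween-20 buffer; beta-galactosidase complementation read by luminescence after 1 h at ambient temperature. Dopamine 57 uM final (EC100) as control.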
# PINK1 modulator: A Quantitative High throughput Screen to Identify Chemical Modulators of PINK1 Expression | PINK1 immunofluorescence, high-content cytometry, 24 h | Potency, µM (highest dose often 76.6 µM), without a hit: at the highest dose activation (PINK1 increase), actives largely listed as activators | actives 0.2% (n = 410,000); active = well fitted activation curve with a large enough effect; inconclusive = small, poorly fitted or top-dose-only effect; inactive = flat fitted curve, though single readings scatter; cell line not stated here;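 also: potency is read from the fitted curve at half-maximal effect; % of control where 0% means no effect; nearly all actives have a fitted effect of over 65% in size; a mitochondrial uncoupler was the plate control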
#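 Stable cell line, 250 cells/well, 12 h attachment; compounds pinned at 5 concentrations, 24 h; CCCP control. Fixed with nuclear dye, primary antibodies 12 h at 10 degrees C, secondary plus cell stain; laser-scanning cytometer read.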
# Six1-Eya2 blk: qHTS Assay for Inhibitors of the Six1/Eya2 Interaction. actives 0.56% (n = 360,000). AlphaScreen GST-Six1/His-Eya2 binding, biochemical; stronger effect = lower value; control for the full effect not named in the record. Homeobox protein SIX1 (Homo sapiens) + Protein phosphatase EYA2 (Homo sapiens), …. activity change, % (concentration not given with the values). AID 651725, 2012; in the data active = activity change below about -65%; inconclusive = about -30% to -65%; inactive = above about -30%; also: % is scaled to controls: 0 for no effect and ±100 for the full control effect
# Target sequence (O00167 whole entry, looked up): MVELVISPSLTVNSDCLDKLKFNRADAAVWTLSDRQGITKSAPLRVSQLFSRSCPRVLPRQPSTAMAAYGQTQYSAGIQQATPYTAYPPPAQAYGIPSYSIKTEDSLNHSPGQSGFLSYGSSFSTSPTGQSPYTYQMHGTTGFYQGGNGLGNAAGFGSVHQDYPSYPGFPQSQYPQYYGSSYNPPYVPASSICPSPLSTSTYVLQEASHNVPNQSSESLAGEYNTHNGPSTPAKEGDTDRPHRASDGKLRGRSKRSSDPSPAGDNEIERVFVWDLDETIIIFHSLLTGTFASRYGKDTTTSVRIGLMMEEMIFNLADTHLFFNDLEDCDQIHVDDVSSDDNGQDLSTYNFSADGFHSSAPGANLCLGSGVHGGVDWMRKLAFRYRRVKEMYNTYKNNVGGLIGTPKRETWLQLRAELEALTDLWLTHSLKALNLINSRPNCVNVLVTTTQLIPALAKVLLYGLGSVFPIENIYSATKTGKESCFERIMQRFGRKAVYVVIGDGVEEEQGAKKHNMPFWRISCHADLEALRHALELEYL
# Target sequence (Q15475 whole entry, looked up): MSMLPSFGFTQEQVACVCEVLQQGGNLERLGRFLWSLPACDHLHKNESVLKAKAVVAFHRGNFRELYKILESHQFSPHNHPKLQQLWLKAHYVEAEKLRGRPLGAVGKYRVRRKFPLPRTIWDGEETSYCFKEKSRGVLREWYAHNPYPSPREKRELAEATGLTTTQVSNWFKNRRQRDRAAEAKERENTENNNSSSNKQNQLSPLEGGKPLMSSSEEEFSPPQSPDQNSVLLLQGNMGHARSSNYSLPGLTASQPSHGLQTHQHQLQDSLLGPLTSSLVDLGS
#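 Six1/Eya2 binding was read as AlphaScreen signal after compounds were pinned into GST-Six1 plus His-tagged Eya2 (5X stock 250/500 nM) in pH 8.0 Tris/NaCl/TCEP buffer, beads added, then incubated 1 h, 37 C, dark.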
# Starred values were filed as active, the others as inactive; ? = inconclusive; · = no result given; [ ] = remark or other dose.
SMILES,TRPML1 blocker,TRPML1 ag,CtBP-E1A inh,D2 agonist,PINK1 modulator,Six1-Eya2 blk
COc1ccccc1C(=O)NCc1nc2cccnc2n1Cc1ccc(F)cc1,-11.4,-0.9,·,·,0.2%,·
CC(C)NC(=O)CSc1nnc(-c2ccc(S(=O)(=O)N3CCCC3)cc2)n1CC1CCCO1 (centres undefined),-1.3,-0.4,8.2,0.7,1.2%,1.8
O=C(Nc1ccc2c(c1)OCO2)C1Cc2ccccc2CN1S(=O)(=O)c1cccs1 (centres undefined),-3.8,-0.7,-1.2,-2.1,0.6%,-3.6
COC(=O)[C@]1(Cc2ccccc2)N[C@H](CN(C)C(=O)Nc2ccc(C(F)(F)F)cc2)[C@@H]2C(=O)N(Cc3ccccc3)C(=O)[C@@H]21,16.0,2.7,0.0,1.9,2.7%,1.0
OC(c1ccccc1)(c1ccccc1)C1CCN(C(=S)NC2CCCC2)CC1,18.3,1.4,-6.6,-7.2,-0.6%,15.5
O=C(c1ccc(CS(=O)Cc2ccc(Cl)cc2)o1)N1CCN(c2ccccc2F)CC1 (centres undefined),41.5,-1.0,-8.1,-2.3,0.4%,-1.3
CCNC(=O)C1(C)CCN(C(=O)c2ccccc2F)C1 (centres undefined),·,-0.5,4.3,4.2,0.3%,5.8
O=C(Nc1ccc2c(c1)OCCO2)C1CC1c1ccccc1 (centres undefined),1.2,3.1,0.5,2.2,-0.9%,-13.6
CC(=O)Nc1ccc(C2Nc3cc(C)c(C)cc3NC3=C2C(=O)CC(C)(C)C3)cc1 (centres undefined),8.6,-0.7,·,-3.3,-0.8%,3.2
O=C1c2ccccc2[C@@H]2C[C@@H](O)[C@H](Nc3ccccc3Cl)CCN12,-13.8,0.1,-9.5,1.1,0.2%,-5.9
COc1ccc(-c2nn(-c3ccccc3)cc2/C=N/O)cc1,-10.2,2.1,-12.7,2.3,0.8%,-11.7
Cn1c(SCC(=O)NC2CCCC2)nnc1-c1ccncc1,-14.8,0.2,3.7,-2.5,-0.4%,-0.3

# Retrieved by compound from above (3):
SMILES,TRPML1 blocker,TRPML1 ag,CtBP-E1A inh,D2 agonist,PINK1 modulator,Six1-Eya2 blk
OC(c1ccccc1)(c1ccccc1)C1CCN(C(=S)NC2CCCC2)CC1,18.3,1.4,-6.6,-7.2,-0.6%,15.5
O=C(c1ccc(CS(=O)Cc2ccc(Cl)cc2)o1)N1CCN(c2ccccc2F)CC1 (centres undefined),41.5,-1.0,-8.1,-2.3,0.4%,-1.3
CCNC(=O)C1(C)CCN(C(=O)c2ccccc2F)C1 (centres undefined),·,-0.5,4.3,4.2,0.3%,5.8

# (next part)
SMILES,TRPML1 blocker,TRPML1 ag,CtBP-E1A inh,D2 agonist,PINK1 modulator,Six1-Eya2 blk
Cc1cc(F)ccc1S(=O)(=O)Nc1ccc2oc3c(c2c1)CC(C)CC3 (centres undefined),4.2,5.5,·,·,6.6%,·
O=C(Cc1ccccc1)Nc1ccccc1Sc1ccccc1,0.5,3.0,38.1,-3.8,6.0%,24.4
O=C1CSC(c2cccnc2)N1Cc1ccc(Cl)cc1 (centres undefined),3.7,0.1,1.9,-0.9,-0.4%,10.4
CN(C)C(C(=O)NC1CCCCC1)c1ccc(Cl)cc1 (centres undefined),3.3,0.1,1.4,-1.0,0.4%,-2.6
CCOc1ccc(C(=O)NCc2cccnc2)cc1,-2.1,-0.3,9.5,0.1,·,6.5
COc1ccc(/C=C2\SC(=O)N(CCNC(=O)C3CCN(S(=O)(=O)c4cccs4)CC3)C2=O)cc1,-5.7,0.5,4.7,2.6,4.6%,-0.9
Cc1ccc(S(=O)(=O)CCC(=O)OC(C)C(=O)NC2CCCCC2C)cc1 (centres undefined),-3.3,-0.3,-5.2,-1.5,0.3%,11.1
CCOC(=O)N1CCN(Cc2nc(-c3cccc(C)c3)no2)CC1,29.6,2.9,1.2,-0.5,3.2%[38.3 µM],0.3
CCOC(=O)N1CCc2c(sc3c2c(=O)n(Cc2ccccc2)c(=O)n3Cc2cc(C)ccc2C)C1,-5.9,0.4,·,·,1.8%,·
OC1(c2ccc(OC(F)F)cc2)CSC(=Nc2cccnc2)N1C1CC1 (centres undefined),1.3,-1.0,-16.8,1.0,0.2%,-15.9
COc1cc(/C=C2\SC(=S)N(C(Cc3ccccc3)C(=O)O)C2=O)ccc1O (centres undefined),0.9,11.0,·,-8.5,0.8%,?
CCOc1ccc(NC(=O)CSc2nnc(Cc3csc(C)n3)o2)cc1,1.8,0.1,-0.2,-0.3,-0.9%,-14.1
Cc1cncn1CCc1nc2c3ccccc3nc(SCC(=O)Nc3ccccc3F)n2n1,2.2,0.8,·,·,1.7%,·
COc1cccc(C(NC(C)=O)c2nc(-c3cccc(C(F)(F)F)c3)cs2)c1 (centres undefined),·,-0.4,11.1,-3.2,1.3%,0.7
COc1ccc(CC(N)c2csc(Nc3ccc(C(=O)c4ccccc4)cc3)n2)cc1 (centres undefined),·,0.5,-12.0,10.1,-1.0%,-10.2
O=C(c1ccc(-n2cncn2)c([N+](=O)[O-])c1)N1CCN(S(=O)(=O)c2ccccc2F)CC1,-4.5,0.1,10.7,3.9,-0.7%,3.6
COc1ccc(-c2cnn3c4c(c(C)nc23)CCN4C2CCCC2)cc1OC,13.9,0.7,-9.3,0.5,12.3%,-2.6
COc1ccc(C(=O)OCC(=O)Nc2ccc3[nH]c(=O)[nH]c3c2)cc1,-0.1,-0.1,3.0,-5.3,3.5%,-1.8
S=c1[nH]nc(-c2ccc(Cl)cc2Cl)n1-c1ccc(Cl)cc1,-1.6,-0.4,1.6,10.7,0.5%,-3.9
CC(=O)c1ccccc1NC(=O)COC(=O)CN1C(=O)C2CCCCC2C1=O (centres undefined),7.7,-0.9,·,-0.3,0.3%,-2.7
C#CCOc1ccc(/C=C2/C(=O)ON=C2C)cc1OCC,-23.5,0.6,3.4,3.2,2.9%,4.5
COc1ccc(CNC(=O)c2cc(Nc3ccc(OC)cc3OC)nc3ccccc23)cc1,-4.5,2.6,·,·,3.0%,·
COc1c(C)cc(C(O)c2ncc(-c3cccc(F)c3)[nH]2)cc1C (centres undefined),-6.9,-0.4,0.8,-4.8,7.5%,-8.1
CC(=O)Nc1ccc(S(=O)(=O)N2CCN(C(=O)c3ncoc3-c3ccccc3C)CC2)cc1,24.8,-0.2,0.0,-0.1,2.6%,0.2
Cc1ccccc1NC(=S)NC(C)C(c1ccccc1)N1CCN(C)CC1 (centres undefined),-18.3,0.2,-2.4,2.4,2.3%,4.8
Cc1ccc(Cc2nc3ccccc3nc2SCC(=O)N2CCCCC2C)cc1 (centres undefined),9.5,0.0,·,·,?,·
CCN(CC)C(=O)c1ccccc1NS(=O)(=O)c1cccs1,7.5,0.5,0.4,0.4,-1.2%,5.1
Cc1c(C(=O)N2CCCCC2CCN2CCCC2=O)oc2c(F)cccc12 (centres undefined),21.1,0.4,-4.9,2.8,-0.6%,6.3
O=C(CC[C@H]1O[C@@H](n2cnc3c(NC(=O)c4ccccc4)ncnc32)[C@H](O)[C@@H]1O)NCC1CCCCC1,·,-0.5,4.8,-3.6,1.1%,-1.4
CCC12CN3CC(CC)(CN(C1)C3c1c[nH]c3ccccc13)C2=O (centres undefined),5.4,0.7,·,·,0.7%,·
Oc1ccc(C(=S)N2CCCCC2)cc1,0.7,-0.5,5.5,-2.8,-0.5%,-18.2
CCOc1ccc(-c2nc(CSCC(=O)N3CCN(c4ccc(F)cc4)CC3)c(C)o2)cc1,18.4,3.2,·,·,0.7%,·
CC1CN(Cc2ccccc2)c2nc3c(c(=O)n(C)c(=O)n3C)n2C1 (centres undefined),9.1,4.2,14.1,1.6,-5.0%[38.3 µM],-1.3
CCOC(=O)c1ccc(N2C(=O)CC(N3CCN(Cc4ccccc4)CC3)C2=O)cc1 (centres undefined),13.0,-0.2,-2.1,-3.2,-1.2%,1.4
Cc1ccc(C)c(OCC(=O)NCCN(C)C)c1,-8.8,0.1,4.3,-0.2,-1.2%,6.6
CC1=C(C(=O)N2CCOCC2)CC(CC(=O)NC(c2ccccc2)c2ccccc2)C(=O)N1CCCN1CCCC1=O (centres undefined),-0.1,1.1,4.1,-2.9,2.2%,2.9
CCc1ccc(CN(C)C(=O)CCc2nnc(Cc3cccc(C)c3)o2)nc1,2.4,1.7,8.6,4.2,1.4%,1.9
CSCCC(NC(=O)c1ccccc1)C(=O)OCC(=O)Nc1ccc(C)c(Cl)c1 (centres undefined),18.6,0.2,-2.4,-7.1,1.8%,-12.2
N#CC1=C(SCC(=O)Nc2ccc(C(=O)O)cc2)NC(=O)CC1c1ccco1 (centres undefined),-1.3,-0.9,·,-0.7,3.0%,-1.2
Cc1ccsc1C(=O)OCC(=O)NCCc1ccccc1,7.5,0.1,3.5,1.4,2.4%,4.8
CCCCN(C)C(=O)c1cccc(OC2CCN(CC(C)(C)C)CC2)c1,12.2,-1.3,·,0.2,2.7%,-3.4
Cc1ccc(-c2nnn(CC(=O)N(CC(=O)NCCC(C)C)c3ccc(F)cc3)n2)cc1,5.9,0.1,·,·,1.7%,·
Cc1nn2c(=O)cc(COC(=O)c3ccc(NC(=O)C(C)(C)C)cc3)nc2s1,15.8,0.2,·,5.0,3.3%,-14.4
Cc1cc(C)n(-c2c(F)c(F)c(CO)c(F)c2F)n1,33.2,0.8,6.0,-3.0,0.9%[38.3 µM],4.8
CCc1ccc(N2CC(C(=O)Nc3cccc(S(=O)(=O)N4CCCC4)c3)CC2=O)cc1 (centres undefined),1.2,0.9,6.0,-1.3,-3.5%,-6.5
Cc1ccc(CNC(=S)Nc2ccc(C)c([N+](=O)[O-])c2)cc1,-9.5,3.8,-5.7,-8.7,?,0.1
O=C(c1ccc(Cl)cc1[N+](=O)[O-])N1CCN(c2ccccn2)CC1,22.3,0.2,·,-0.1,2.0%,12.9
COc1ccc(C(=O)C(OC(=O)c2ccccc2)c2ccccc2)cc1 (centres undefined),15.9,0.5,3.1,-5.1,3.9%,5.7
Cc1ccc(C)c(NC(=O)CSc2nnc(CNC(=O)c3ccco3)o2)c1,-7.2,-0.7,-5.8,-3.5,-0.6%,1.0
CC(C)NC(=O)C1(C)CCCCN1Cc1cccc(C(F)(F)F)c1 (centres undefined),·,-0.9,10.2,-4.8,6.9%,0.2
C=CCSc1nnc(NC(=O)C2CC(=O)N(c3ccc4c(c3)OCCO4)C2)s1 (centres undefined),-9.3,0.7,-1.1,1.3,-1.5%,-6.3
